Tb PGK inh: inhibitors of T. brucei phosphoglycerate kinase; hit rate 0.043% among 380,000; PGK/GAPDH coupled, Kinase-Glo luminescence, 60 min; P07378; Potency, µM (doses to about 57.5 µM), without a hit: top-dose activity change, negative = inhibition, hits mostly inhibitors; note: potency is the fitted concentration of half-maximal effect; % is set by controls: 0 for no effect and ±100 for the full control effect; nearly all actives have a fitted effect of over 60% in size
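Luminescent ATP detection (Kinase-Glo Plus) follows a 60-minute room-temperature incubation, with wells lacking PGK as controls. Buffer: 100 mM TEA (pH 7.6), 5 mM MgCl2, 0.01% Tween-20. Coupling enzyme GAPDH (100 nM final) supplies unstable 1,3-BPG in-well.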
Pin1 inhibitor: inhibitors of human Pin1. Pin1 FP peptide displacement, HiFluor488, 10 min. Potency, µM (doses to about 115 µM), for the others: at the top dose activity, negative = inhibition, actives largely listed as inhibitors. hit rate 0.009% among 390,000. AID 504891; active = well fitted inhibition curve with a large enough effect in the polarisation, with a control signal flat, not every such curve was filed as active; inconclusive = small, poorly fitted or top-dose-only effect, or effect the other way, or a change in a side signal; inactive = no such curve, though single readings can be large or run the other way; the % refers to the polarisation; note: potency is the fitted concentration of half-maximal effect; % is set by controls: 0 for no effect and ±100 for the full control effect
Target sequence (Q13526 whole entry, looked up): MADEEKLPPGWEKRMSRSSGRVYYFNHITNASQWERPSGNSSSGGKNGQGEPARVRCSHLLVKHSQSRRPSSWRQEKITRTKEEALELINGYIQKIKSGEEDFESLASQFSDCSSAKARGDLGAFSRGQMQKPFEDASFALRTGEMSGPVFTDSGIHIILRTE
PI4K2A block: inhibitors of human PI4K2A | hit rate 0.13% among 420,000 | activity change, negative = inhibition, % at 76.9 µM | purified PI4K2A, ADP-Glo luminescence, 1 h; hits give low values; in the data active = activity change below about -50%; inconclusive = mostly about -30% to -49%;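 note: -100% = wells without enzyme as full effect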
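In this quantitative HTS, ADP production by PI4K2A was quantified luminescently after 1 h at ambient temperature; 100 microM adenosine served as plate-quality control.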
ERG Ets-DNA blk: inhibitors of human ERG Ets domain-DNA interaction | hit rate 0.028% among 370,000 | P11308 | fluorescence polarization, His-ERG Ets domain / labelled DNA | Potency, µM (doses to about 76.9 µM), for the others: at the highest dose FP activity, negative = inhibition, most hits filed as inhibitors; active = well fitted inhibition curve with a large enough effect in the polarisation, with a control signal flat; inconclusive = small, poorly fitted or top-dose-only effect, or effect the other way, or a change in a side signal; inactive = no such curve, though single readings can be large or run the other way; the % refers to the polarisation;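 note: polarization taken with two DNA probes labelled with fluorescein and Texas red; potency is the fitted concentration of half-maximal effect; % of control where 0% means no effect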
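His-tagged ERG Ets domain (1 uM in the protein solution; 300mM KCl, 50mM Tris-HCl, 1mM EDTA, 1mM DTT, pH 7.5) received compound, then a probe mix of 5 nM fluorescein-DNA and 100nM Texas-615-DNA. Fluorescence polarization was read for both dyes.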
GLS inhibitor: glutaminase GLS (human) inhibition. GLS enzymatic activity, qHTS titration. AID 624170. hit rate 0.21% among 410,000. O94925. Potency, µM (titrated, usually from 45.5 µM), for the others: at the top dose activity change, negative = inhibition, most hits filed as inhibitors; note: potency is the fitted concentration of half-maximal effect; % is set by controls: 0 for no effect and ±100 for the full control effect
Target sequence (O94925 whole entry, looked up): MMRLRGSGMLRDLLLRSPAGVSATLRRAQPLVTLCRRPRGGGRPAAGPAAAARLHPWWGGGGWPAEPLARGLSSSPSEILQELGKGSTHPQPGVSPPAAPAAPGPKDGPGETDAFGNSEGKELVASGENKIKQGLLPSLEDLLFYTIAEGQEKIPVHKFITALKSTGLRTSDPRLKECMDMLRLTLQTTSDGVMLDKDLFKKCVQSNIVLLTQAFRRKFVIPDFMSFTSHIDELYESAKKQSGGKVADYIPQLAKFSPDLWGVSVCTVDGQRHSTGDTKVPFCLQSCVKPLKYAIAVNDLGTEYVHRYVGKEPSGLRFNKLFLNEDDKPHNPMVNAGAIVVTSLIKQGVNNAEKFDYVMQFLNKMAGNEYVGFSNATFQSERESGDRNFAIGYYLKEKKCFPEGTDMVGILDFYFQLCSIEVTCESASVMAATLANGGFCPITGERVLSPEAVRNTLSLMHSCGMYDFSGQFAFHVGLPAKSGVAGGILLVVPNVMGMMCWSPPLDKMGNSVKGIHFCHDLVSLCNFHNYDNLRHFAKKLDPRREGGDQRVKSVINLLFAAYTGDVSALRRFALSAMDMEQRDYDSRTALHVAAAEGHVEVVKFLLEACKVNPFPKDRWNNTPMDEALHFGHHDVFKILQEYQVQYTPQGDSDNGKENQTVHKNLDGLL
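Glutamate formation by hKGA was monitored fluorometrically using coupled glutamate oxidase, HRP and Amplex Red. Substrate was added as 1 mM L-glutamine solution; incubation was 30 min at RT after an initial read.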
* = called active by the depositor; i = inactive; ? = inconclusive; . = not tested or not shown; & = joins results of further samples; [ ] = another dose, or the depositor's remark. Unless noted, calls come from the whole dose curve; as a rule, active = well fitted curve in the direction sought with a large enough effect; inconclusive = small, poorly fitted or top-dose-only effect, or another doubt; inactive = no such curve, though single readings can be large; an effect the other way counts as inactive or inconclusive. An excerpt, so the mix of outcomes need not match the whole.

ERG Ets-DNA blk,GLS inhibitor,Pin1 inhibitor,Tb PGK inh,PI4K2A block,Molecule
4%,1%,?,-1%,0,Cc1cnc(CNC(=O)CC2C(=O)NCCN2Cc2ccccc2F)cn1 (stereo unspecified)
2%,-10%,-9%,-6%,6,CC(C)[C@@H](C(=O)OCC(=O)c1ccc2c(c1)NC(=O)CO2)N1C(=O)c2ccccc2C1=O
0%,9%,-17%,-7%,3,COc1ccc(CN2CCN(C(=O)CC(C)C)CC2)c(OC)c1OC
0%,0%,4%,1%,1,CC(C(=O)NC(C)(C)C)N(Cc1cccs1)C(=O)CCN1CCc2ccccc21 (stereo unspecified)
3%,20%,-8%,-2%,-5,CC(=O)N1CCN(S(=O)(=O)c2cccc(C(=O)Nc3ccccc3N3CCCCC3)c2)CC1
13%,-14%,-6%,-6%,2,Cc1sc(NC(=O)c2ccccc2)c(C(=O)c2ccccc2)c1C
-4%,5%,?,-2%,-5,COC(=O)C(=O)Nc1nnc(COc2ccccc2)s1
-6%,5%,-9%,i,2,FC(F)(F)c1cnc(-c2cnc3c(-c4ccc(Cl)cc4)cnn3c2)c(Cl)c1
-3%,-4%,-1%,-23%,?,COc1ccc2c(CC(=O)OCC(=O)Nc3cccc(C)c3)coc2c1
33%[activator],-13%,33%[activator],-1%,-1,Cc1ccccc1-n1c(=O)/c(=C\c2ccco2)s/c1=C(/C#N)C(=O)Nc1ccccc1
-5%,-1%,1%,i,20,Cc1ccccc1OCCN1C(=O)C(=O)c2cccc(C)c21
-10%,2%,-4%,9%,-2,CS(=O)(=O)N(CC(=O)Nc1ccc(S(=O)(=O)N2CCOCC2)cc1)c1ccccc1Cl
8%,3%,9%,-9%,0,Cc1cccc(-c2ccc(C=Nc3c(C)n(C)n(-c4ccccc4)c3=O)o2)c1
0%,1%,-23%,.,-5,C=CCc1cccc2cc(-c3nc4ccc(C)cc4[nH]3)c(=O)oc12
-7%,-1%,?,10%,-15,Cc1c(C(=O)OCC(=O)N(C)Cc2ccc(Cl)cc2)oc2ccccc12
-17%,8%&1%,0%,-6%,-3&4&2,CCN(CC)CCNC(=O)c1ccc(N)cc1
-2%,-1%,2%,-3%,7,C=CCn1c(CCNC(=O)c2ccccc2F)nnc1SCc1nc2ccccc2c(=O)[nH]1
-2%,-29%,.,?,1,O=C(CSc1nc(-c2ccc(F)cc2)nc2ccc(F)cc12)Nc1cccc(C(=O)O)c1
1%,-4%,-17%,-10%,2,Cc1cc(F)ccc1NCc1cc2c(cc1[N+](=O)[O-])OCO2
.,14%,-4%,-2%[11.5 µM],-4,CN(C)c1ccnc2sc(C(N)=O)c(N)c12
120%[activator],-18%,?,-1%,-3,CCOC(=O)N1CCN(C(=O)c2ccc3c(c2)NC(=O)/C(=C\c2ccc(OC)c(OC)c2)S3)CC1
4%,?,6%,-5%,-3,O=C(/C=C/NNC(=O)c1ccccc1)c1ccc([N+](=O)[O-])cc1
4%,14%,?,3%,8,CCCCOc1ccccc1-c1cc(C(=O)O)[nH]n1
2%,0%,?,-2%,1,CCCCCOc1ccc(CSc2ncn[nH]2)cc1
8%,-3%,0%,i,3,CC(C)NC(=O)C(OC(=O)c1ccccc1)C(OC(=O)c1ccccc1)C(=O)O (stereo unspecified)
7%,1%,0%,0%,1,COc1ccc(NC(=O)CSc2nnc(-c3ccccn3)n2N)cc1
9%,13%,5%,7%,-8,COC(=O)Oc1ccc(/C=N/NC(=O)CSCc2ccccc2Br)cc1OC
-5%,5%,2%,6%,-4,CCOC(=O)c1cc(C#N)c(Oc2ccccc2OC)nc1-c1ccccc1
-6%,3%,20%,i,1,COC(=O)c1ccc(CSc2cc(C)c3cccc(C)c3n2)o1
5%,-11%,-1%,5%,0,O=C(/C=C/c1c(F)cccc1Cl)NCc1ccc2c(c1)OCO2
-6%,-4%,-7%,-4%,0,C[C@H](NC(=O)c1nc[nH]c1C(=O)N[C@@H](C)C(=O)OC(C)(C)C)C(=O)OCc1ccccc1
-1%,17%,2%,0%,-5,Cc1nn(-c2ccccc2)c2[nH]c(=O)c(CNCCN3CCOCC3)cc12
-1%,1%,-6%,13%,-1,COC(=O)c1ccc(CSc2ncn[nH]2)o1
.,?,?,-16%[11.5 µM],-5,C/C(N)=C(/C#N)C(=O)CSc1nnc(NC(C)C)s1
-6%,0%,-6%,i,-2,O=C(NN1CC(C(=O)OCc2ccc(Br)cc2)CC1=O)c1ccccc1 (stereo unspecified)
5%,0%,13%,0%,-9,Cc1ccc(OCc2nnc(NC(=O)c3ccco3)s2)cc1
-4%,5%,-6%,4%,-1,O=C(CCCn1cnc([N+](=O)[O-])n1)Nc1cc(Cl)ccc1O
-11%,-13%,-5%,-1%,2,CC(C)c1ccc(C2NC(C(=O)O)CS2)cc1 (stereo unspecified)
-4%,-5%,4%,1%,2,Cc1cc(NC(=O)CSc2nc3c(cc2C#N)CCC3)no1
-14%,13%,-16%,-3%,-6,CNCC(=O)O
7%,-2%,-1%,5%,-7,Cc1cc(C)c(S(=O)(=O)Nc2cccc(/C=C/C(=O)O)c2)c(C)c1
-3%,1%,-4%,.,4,Fc1ccc(-c2cc3nc(-c4ccccc4)cc(N4CCN(CCN5CCOCC5)CC4)n3n2)cc1
-1%,2%,1%,-7%,-3,CCC(Cn1nnc2ccccc2c1=O)NC(=O)Nc1ccc(C)c(C)c1 (stereo unspecified)
-15%,-3%,-7%,-2%,-3,O=C(O)c1cccc(CSc2ncn[nH]2)c1
10%,.,-11%,4%,2,Cc1ccc(-c2nnc(SCC(=O)OC(C)C)n2N)cc1
-4%,4%,-9%,i,-2,CC(C)[C@H](Nc1ccc(S(=O)(=O)N2CCOCC2)cc1[N+](=O)[O-])C(=O)OCC(=O)N(C(C)C)C(C)C
-6%,.,-2%,-3%,-7,Clc1ccc(OCCOCCN2CCCCC2)c(Br)c1
0%,1%,-11%,-5%,-3,CN1CCN(c2cc(-c3ccccc3)nc3cc(-c4ccc(F)cc4)nn23)CC1
-13%,0%,-6%,-1%,-1,C/C(=N\NC(=O)c1cccnc1)c1c(O)cc(C)oc1=O
-5%,0%,8%,-1%,8,C/C(=N\NC(=O)c1ccccc1O)c1c(O)cc(C)oc1=O
-7%,0%,5%,-5%,-3,CCc1ccc(OCc2nnc(NC(=O)c3cccs3)s2)cc1
6%,5%,?,-6%,1,CCOC(=O)C1CCN(C(=O)c2ccc3c(c2)NC(=O)/C(=C\c2ccc(C)cc2)S3)CC1
2%,-9%,-7%,-8%,1,COc1cccc(/C=C/c2nc(C#N)c(N3CCN(C)CC3)o2)c1
5%,9%,-2%,i,-5,Cc1ccc(CNC(=O)C(CC(C)C)N2Cc3ccccc3C2=O)cc1 (stereo unspecified)
?,1%,-1%,i,-1,CCOCCCNCC(=O)Nc1ccc(S(=O)(=O)NC(C)CC)cc1 (stereo unspecified)
-2%,6%,0%,-10%,0,Cc1ccc(N2C(=O)C3CCCN3C2=S)cc1C (stereo unspecified)
5%,?,?,0%,-13,NC(=O)COC(=O)c1c2c(nc3ccccc13)CCC2
-2%,-21%,5%,i,0,CN(CC(=O)Nc1ccc(F)c(F)c1)S(=O)(=O)c1cccs1
12%,-1%,0%,i,5,COc1ccc(CN2CCOCC2)c(C)c1C
-5%,0%,0%,-7%,-2,C[C@H](NC(=O)c1nc[nH]c1C(=O)NC1CCN(C(=O)OC(C)(C)C)CC1)C(=O)OCc1ccccc1

Quoted at random: five entries already listed.
ERG Ets-DNA blk,GLS inhibitor,Pin1 inhibitor,Tb PGK inh,PI4K2A block,Molecule
10%,.,-11%,4%,2,Cc1ccc(-c2nnc(SCC(=O)OC(C)C)n2N)cc1
5%,0%,13%,0%,-9,Cc1ccc(OCc2nnc(NC(=O)c3ccco3)s2)cc1
-11%,-13%,-5%,-1%,2,CC(C)c1ccc(C2NC(C(=O)O)CS2)cc1 (stereo unspecified)
-7%,0%,5%,-5%,-3,CCc1ccc(OCc2nnc(NC(=O)c3cccs3)s2)cc1
-15%,-3%,-7%,-2%,-3,O=C(O)c1cccc(CSc2ncn[nH]2)c1

(next part)
ERG Ets-DNA blk,GLS inhibitor,Pin1 inhibitor,Tb PGK inh,PI4K2A block,Molecule
7%,0%,-6%,0%,0,COCCn1c(SCC#N)nnc1-c1ccccc1
-11%,25%,-7%,-3%,1,c1ccc2c(c1)CCCN2Cc1nnnn1C1CCCC1
10%,-4%,-1%,-1%,-12,Cc1ccc(S(=O)(=O)CC(=O)c2cc3cccc(C)c3oc2=O)cc1
-7%,11%,-4%,30%,9,Cc1ccc(C)c(OCCCN2CCCC2)c1
-5%,3%,1%,i,-7,Cc1c(N=Cc2ccncc2)c(=O)n(-c2ccccc2)n1C
0%,7%,?,-1%,-1,O=C1CCC(=O)N1c1ccc(NCc2ccccc2Cl)c([N+](=O)[O-])c1
-5%,6%,1%,0%,-2,Cc1[nH]c(=O)[nH]c(=O)c1S(=O)(=O)Nc1cccc(C(F)(F)F)c1
-6%,20%,?,-7%,-3,Cc1ccc(C(=O)CSc2ncn[nH]2)cc1
5%,-1%,5%,7%,-6,CC1CN(C(=O)COC(=O)Cc2c(F)cccc2Cl)CC(C)O1 (stereo unspecified)
8%,-16%,0%,i,3,CCOC(=O)c1cc(C#N)c(N2CCOCC2)nc1-c1ccccc1
12%,0%,-1%,-5%,66,COc1ccc(C(c2sc3nc(C)nn3c2O)N2CCc3ccccc3C2)cc1 (stereo unspecified)
-10%,-5%,?,0%,-2,O=C(C1CCCN(CCCc2ccccc2)C1)N1CCCCCC1 (stereo unspecified)
-22%,15%,1%,-1%,7,CCC(NS(=O)(=O)c1c(C)[nH]c(=O)[nH]c1=O)C12CC3CC(CC(C3)C1)C2 (stereo unspecified)
-4%,4%,2%,-2%,0,O=C1Nc2cc(C(=O)N3CCOCC3)ccc2S/C1=C\c1ccccc1
2%,5%,-1%,-3%,0,CCOc1ccc(NC(=O)c2cnsn2)cc1
8%,0%,14%,-7%,-8,Cc1ccc([N+](=O)[O-])cc1NC(=O)Cc1cccs1
-2%,-4%,-5%,3%,2,Cc1nc(SCN2C(=O)c3ccccc3C2=O)n[nH]1
-4%,?,-13%,0%,25,COc1ccc(OCc2nnc3n2N=C(c2ccccc2)C(CC(=O)O)S3)cc1 (stereo unspecified)
-10%,-19%,-14%,i,-2,CN1CSC2=C(C#N)C(c3cccc(OCc4ccccc4)c3)CC(=O)N2C1 (stereo unspecified)
-7%,?,0%,3%,1,CC(C(=O)Nc1ccccc1-c1ccccc1)N1CCN(Cc2ccccc2)CC1 (stereo unspecified)
-4%,1%,2%,.,6,CC(C)C(C(=O)N1CCOCC1)N1C(=O)c2ccccc2C1=O (stereo unspecified)
3%&-10%,-2%&1%,3%&4%,1%&-1%,2&-7,COC(=O)Nc1ccc2c(c1)N(C(=O)CCN1CCN3CCCC3C1)c1ccccc1CC2 (stereo unspecified)
-3%,10%,2%,-1%,8,O=C(Nc1ccc2oc(=O)ccc2c1)c1ccco1
6%,3%,0%,i,-3,COc1ccc(C(C)NCCC(c2ccc(OC(C)C)cc2)c2ccccc2OC)cc1 (stereo unspecified)
-3%,10%,1%,-7%,1,CSc1ccc(CNc2ncc(-c3ccccc3)n2C)cc1
7%,-5%,3%,5%,0,COc1ccc(/C=C(/Sc2nnc(-c3ccc(Cl)cc3)o2)C(=O)O)cc1

Assay outcomes (PubChem)
